D2 agonist: activates the human D2 dopamine receptor | actives 0.084% (n = 360,000) | DiscoveRx PathHunter D2 beta-arrestin, luminescence, 90 min; 100% = 57 uM dopamine signal | activation, % (concentration not given with the values) | AID 624465; in the data active = activation above about 40%; inconclusive = about 15% to 40%; inactive = below about 15%; note: compound concentration not given in the record; the text of the record calls up to 30% inactive
Target sequence (P14416 whole entry, looked up): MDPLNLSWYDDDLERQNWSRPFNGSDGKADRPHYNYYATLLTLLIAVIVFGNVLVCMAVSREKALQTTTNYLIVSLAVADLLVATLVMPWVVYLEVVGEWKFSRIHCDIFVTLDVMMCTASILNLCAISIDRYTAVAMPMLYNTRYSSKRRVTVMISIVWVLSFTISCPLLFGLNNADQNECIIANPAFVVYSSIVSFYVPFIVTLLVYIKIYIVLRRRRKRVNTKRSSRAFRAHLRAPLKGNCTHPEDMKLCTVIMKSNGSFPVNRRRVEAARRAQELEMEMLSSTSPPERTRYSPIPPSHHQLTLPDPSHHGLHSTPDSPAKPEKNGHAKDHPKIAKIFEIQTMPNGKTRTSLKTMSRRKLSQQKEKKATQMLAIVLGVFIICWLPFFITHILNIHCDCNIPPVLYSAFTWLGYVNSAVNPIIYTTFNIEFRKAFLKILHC
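DiscoveRx PathHunter D2 beta-arrestin cells (2,100/well) attached overnight, then compound-stimulated 90 min at 37 C in HBSS/10 mM HEPES/0.1% Tween-20 buffer; beta-galactosidase complementation read by luminescence after 1 h at ambient temperature. Dopamine 57 uM final (EC100) as control.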
TRPML1 blocker: blocks the human TRPML1 channel. activity change, negative = inhibition, % (no concentration beside the values). Q9GZU1. TRPML1-inducible cells, Ca2+ dye fluorescence, FDSS; hits give low values; inhibition of EC80 agonist-evoked calcium signal. actives 0.02% (n = 390,000); in the data active means activity change below about -50%; inconclusive means about -30% to -50%; inactive means above about -30%;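 note: stimulus is agonist 54-4 at its EC80 concentration; % is set by controls: 0 for no effect and ±100 for the full control effect; compound concentration not given in the record; the text of the record puts the active cut at -80%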
Target sequence (Q9GZU1 whole entry, looked up): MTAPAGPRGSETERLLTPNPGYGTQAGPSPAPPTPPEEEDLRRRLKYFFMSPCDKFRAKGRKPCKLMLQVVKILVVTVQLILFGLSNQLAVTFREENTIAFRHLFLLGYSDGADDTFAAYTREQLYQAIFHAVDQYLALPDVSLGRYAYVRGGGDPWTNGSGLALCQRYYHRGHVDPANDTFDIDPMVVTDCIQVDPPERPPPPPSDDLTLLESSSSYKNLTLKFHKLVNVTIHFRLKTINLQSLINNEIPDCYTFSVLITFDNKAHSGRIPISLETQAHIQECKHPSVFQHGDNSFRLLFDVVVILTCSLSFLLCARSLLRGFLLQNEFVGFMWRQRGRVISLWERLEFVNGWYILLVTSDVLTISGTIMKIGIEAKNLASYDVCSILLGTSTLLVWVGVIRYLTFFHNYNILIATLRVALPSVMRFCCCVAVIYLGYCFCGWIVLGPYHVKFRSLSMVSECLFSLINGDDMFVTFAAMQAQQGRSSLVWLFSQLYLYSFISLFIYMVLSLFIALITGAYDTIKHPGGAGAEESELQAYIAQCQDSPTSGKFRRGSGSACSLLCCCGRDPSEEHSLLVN
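Tet-induced TRPML1-DL cells loaded with Ca8 no-wash calcium dye were read kinetically on FDSS. Compound addition was followed by EC80 agonist 54-4 (4 uM final); inhibition was read over 110 s.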
Six1-Eya2 inh: Six1/Eya2 interaction inhibition | AlphaScreen GST-Six1/His-Eya2 binding, biochemical; hits give low values; control for the full effect not named in the record | activity change, % (test concentration not listed) | actives 0.56% (n = 360,000) | AID 651725; in the data active = activity change below about -65%; inconclusive = about -30% to -65%; inactive = above about -30%; note: % is set by controls: 0 for no effect and ±100 for the full control effect; compound concentration not given in the record
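AlphaScreen with GST-Six1 and His-Eya2 (5X mix: 250 nM and 500 nM), glutathione donor and nickel acceptor beads; buffer 50 mM Tris pH 8.0, 300 mM NaCl, 1 mM TCEP; 1 h at 37 C in the dark.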
PINK1 expr mod: modulators of PINK1 expression | PINK1 immunofluorescence, high-content cytometry, 24 h | Potency, µM (highest dose often 76.6 µM), for inactives: at the highest dose activation (PINK1 increase), hits mostly activators | actives 0.2% (n = 410,000); active = well fitted activation curve with a large enough effect; inconclusive = small, poorly fitted or top-dose-only effect; inactive = flat fitted curve, though single readings scatter; cell line not stated here;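 note: potency is the fitted concentration of half-maximal effect; % of control where 0% means no effect; nearly all actives have a fitted effect of over 65% in size; a mitochondrial uncoupler was the plate control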
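A stable cell line was treated with compounds at 5 concentrations for 24 hours, with CCCP as control. PINK1 levels and mitochondrial localization were measured by immunofluorescence with mitochondrial, cell and nuclear markers after fixation, read by laser-scanning cytometry.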
TRPML1 ag: agonists of human TRPML1 channel | Q9GZU1 | TRPML1-expressing cells, Ca2+ dye fluorescence, FDSS; host cell line not named in the record; reference of the full effect not given here | activation, % (test concentration not listed) | actives 0.12% (n = 410,000) | AID 624414; in the data active = activation above about 50%; inconclusive = about 30% to 50%; inactive = below about 30%; note: 0% is about no effect; the text of the record puts the active cut at 80%
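In this qHTS format, compounds were pin-transferred onto Ca8-dye-loaded TRPML1-DL cells induced with Tet overnight, and intracellular Ca2+ fluorescence was recorded kinetically for 110 s after a 10 s baseline. A subsequent 4uM final 54-4 (EC80) addition followed by a second 110 s read served as the antagonist phase.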
CtBP-E1A blk: blocks the CtBP interaction with E1A; AlphaScreen GST-E1A/His-CtBP binding, 1536-well; hits give low values; control for the full effect not named in the record; activity change, % (test concentration not listed); actives 0.49% (n = 340,000); AID 651724; in the data active means activity change below about -65%; inconclusive means about -30% to -65%; inactive means above about -30%; note: % is set by controls: 0 for no effect and ±100 for the full control effect; compound concentration not given in the record
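GST-E1A and His-tagged CtBP (125 nM each as 5X stock) were preincubated with pin-transferred compound for 2 h at 37 °C in the dark, then glutathione donor and nickel acceptor beads were added for 1 h before AlphaScreen reading.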
* = called active by the depositor; ? = inconclusive; nt = no result given; & = joins results of further samples; [ ] = another dose, or the depositor's remark.

Structure,D2 agonist,TRPML1 blocker,Six1-Eya2 inh,PINK1 expr mod,TRPML1 ag,CtBP-E1A blk
O=C1CSc2ccc(S(=O)(=O)NCc3ccc(F)cc3)cc2N1,0.3,1,0,2.3%,-0.7,nt
Cc1cc(NC(=O)Nc2ccccc2F)ccc1Br,6.0,-13,-9,14%,-0.4,0
Cc1ccccc1Nc1cc2ccccc2c(=O)[nH]1,5.9,-12,31,7.3%,1.5,?
COc1cc(C(=O)N(C)CC(=O)Nc2cccc(F)c2)ccc1OCc1ccccc1,1.8,2,-4,1.4%,0.0,9
COc1cc(/C=N/NC(=O)CCOc2ccccc2C)cc(Br)c1O,0.5,4,-11,0.4%,1.0,nt
CNC(=O)COc1coc(CN2CCN(c3cccc(Cl)c3)CC2)cc1=O,-5.7,-8,-4,-1.8%,-0.5,-7
Cn1c(COc2ccccc2)nnc1SCCN1CCOCC1,-2.9,-2,19,-1.8%,-0.4,0
COc1ccc(NC(=O)CCCN2C(=O)CN(C)C2=O)cc1Cl,-1.4,18,3,0.0%,-0.2,nt
CCC(=O)Nc1ccc(N2CCOCC2)c(S(=O)(=O)Nc2ccc(Cl)cc2)c1,-0.5,11,-3,-0.3%,0.4,-3
Cc1ccc2c(CC(=O)NCc3ccccc3)coc2c1C,nt,26,nt,11%,1.2,nt
O=C(Nc1ccnn1C1CCN(C2CCOCC2)CC1)c1cccc(F)c1,0.1,3,0,-0.8%,-0.2,1
Cc1ccccc1[C@@H]1C(C#N)=C(N)S[C@H]1C(=O)c1ccccc1,-2.0,5,-6,-0.4%,1.7,2
Cc1ccc(-n2ncc(C(=O)N3CCCCC3)c2C2CCN(C(=O)OC(C)(C)C)CC2)cc1C,nt,15,nt,0.9%,0.8,nt
CCCCNS(=O)(=O)c1ccc2nc(SCC(=O)c3ccccc3OC)[nH]c2c1,-0.3,-2,-9,4.4%[38.3 µM],-0.5,-12
CCOC(=O)c1c(C)[nH]c(C)c1C(=O)COC(=O)c1cccnc1Cl,-5.9,3,6,0.9%,1.0,2
CCc1cc(=O)oc2cc3occ(-c4ccc(OC)c(F)c4)c3cc12,0.9,37,-1,14%,2.0,7
O=C(C1CCN(S(=O)(=O)c2ccc(Cl)cc2)CC1)N1CCOCC1,0.4,-8,8,nt,-0.4,-5
Cc1ccc(C)c(Oc2cc(NC(=O)CCCn3nc(C)c([N+](=O)[O-])c3C)cc([N+](=O)[O-])c2)c1,1.5,14,7,45µM*,0.2,2
CCC1CCCCN1CCCNC(=O)CN1C(=O)c2cccnc2Oc2ccc(C)cc21 (configuration not stated),-7.6,17&6,0,-1.1%&0.3%,-0.2&1.2,1
C=CCCC(=O)NC1CC(C)(C)Cc2c1cnn2-c1ccc(OC)cc1 (configuration not stated),-1.5,8,4,0.0%,-0.6,nt
Cc1ccc(OCC(=O)Nc2cccc(O)c2)cc1C,-3.9,31,3,-0.6%,1.6,1
CN1CCC(=NNC(=O)c2cc(-c3ccc(Cl)cc3)n[nH]2)CC1,2.1,-11,-5,4.4%,-0.6,6
O=C(Nc1ccccc1C(F)(F)F)N1CCN(C(c2ccccc2)c2ccccc2)CC1,-0.8,-1,0,4.7%[38.3 µM],-0.7,1
CCCn1c(=O)c(C(=O)Nc2ccccc2)c(O)c2ccccc21,0.5,1,8,19%,0.0,9
CCN(C[C@H]1N[C@@](Cc2ccccc2)(C(=O)OC)[C@H]2C(=O)N(Cc3ccccc3)C(=O)[C@@H]12)C(=O)Nc1ccc(C(F)(F)F)cc1,-1.2,19,2,29%,2.9,-1
COc1ccc(CCNC(=O)c2cccnc2Cl)cc1OC,-1.6,-6,1,1.8%,-0.7,nt
CN(C)/C=N/c1nc2nccc(-c3cccs3)n2n1,-1.2,-7,-25,2.1%,-0.3,-21
Cc1ccc(C(=O)N[C@H](C(=O)OCC(=O)c2ccc[nH]2)C(C)C)cc1,-0.3,-13,3,-1.3%,-0.6,-2
Cn1c(N)c(C(=O)COC(=O)c2cncc(Br)c2)c(=O)n(C)c1=O,1.8,-5,-2,0.2%,1.1,1
Cc1ccc(C(=O)Nc2ccc(NC(=O)c3ccccc3Cl)c(C)c2)cc1,-1.8,1,-2,7.4%,-0.1,5
CC1(C)CC(CCC(=O)Nc2ccc(S(N)(=O)=O)cc2)C(=O)O1 (configuration not stated),-1.0,-20,3,-0.1%,0.6,5
CC(C)c1ccc(NC2CCCN(C(=O)c3ccccc3-c3ncc[nH]3)C2)cc1 (configuration not stated),-1.2,-10,-4,-1.1%,-0.8,-9
CCOC(=O)C(NC(=O)OC(C)C)(Nc1nccs1)C(F)(F)F (configuration not stated),-2.8,1,3,3.9%,-0.5,6
Cc1cccc(Nc2nc3c(c(=O)n(C)c(=O)n3C)n2CC(O)CO)c1 (configuration not stated),0.6,20,-2,-1.1%,1.0,1
C/C(=N\NC(=O)c1cccs1)c1c(O)cc(C)oc1=O,-1.6,-7,-3,0.2%,-0.4,-13
CCCCCCCSc1ncnc2[nH]ncc12,0.1,16,5,-1.1%,1.0,9
Cc1ccc(S(C)(=O)=O)cc1C(=O)Nc1cccc(S(=O)(=O)N2CCCCCC2)c1,6.0,0,-1,1.1%,2.2,0
COC(=O)c1ccc(COC(=O)c2[nH]c(C)c(C(C)=O)c2C)o1,4.3,0,-4,0.6%,0.8,-2
O=C(OCc1cn([C@H]2CN(C(=O)C3CCCCC3)[C@@H](c3ccccc3)C[C@@H]2O)nn1)c1ccccc1,-11,17,0,0.1%,0.5,-18
O=C(Cn1c2c(c(=O)n3ncnc13)CCC2)N/N=C/c1cccs1,-5.7,1,-4,1.9%,-0.6,nt
CCOc1ccc(-c2cccc(NS(=O)(=O)c3ccc(Cl)s3)c2)nn1,nt,-4,nt,-0.1%,1.6,nt
Cc1cc(C)cc(C(=O)NC(CC(N)=O)c2ccc(NCCN3CCCC3)c([N+](=O)[O-])c2)c1 (configuration not stated),0.9,-3,10,0.6%,-0.6,-2
O=C(CSc1ncn(-c2ccccc2)n1)Nc1ccc(Br)cn1,-2.5,-1,17,nt,-0.4,0
COc1ccc(S(=O)(=O)N2CCOCC2)cc1NC(=O)CCCOc1ccccc1,-2.3,-13,-5,-4.2%,0.2,3
O=C(NNC1=Nc2ccccc2SC1)c1cccc([N+](=O)[O-])c1,-2.7,10,4,2.3%,1.1,-1
CCOc1ccc(N(CC(=O)NC2CCCC2)C(=O)CCCC(=O)Nc2ccccn2)cc1,0.2,7,3,-1.2%,1.7,3
CCc1ccc(-c2cn(-c3nc(C)cc(C)n3)c(=N)o2)cc1,-2.3,2,-6,3.9%,2.3,-4
CCCn1c2ccccc2c2cnn(CC(=O)N3CCCC(C(=O)OCC)C3)c(=O)c21 (configuration not stated),nt,17,nt,1.6%,-0.2,nt
COc1ccc2oc(=N)c(C(=O)NCc3ccccc3)cc2c1,-5.1,13,-9,0.7%,-0.5,-1
CCCn1c(NCc2ccc3c(c2)OCO3)nc2ccccc21,-2.7,3,-1,-2.9%[38.3 µM],1.3,1

Additional records
Structure,D2 agonist,TRPML1 blocker,Six1-Eya2 inh,PINK1 expr mod,TRPML1 ag,CtBP-E1A blk
CCN(CCCNC(=O)C1CCN(C(=O)c2cc3sccc3n2C)CC1)Cc1ccccc1,4.0,-3,-1,-0.9%,0.2,-15
COc1cccc(C(=O)NCC(=O)OCc2cc(=O)n3ccsc3n2)c1,nt,9,nt,-0.8%,-0.1,nt
COc1ccc(OC)c(NC(=O)CCn2ccnc2)c1,2.7,4,7,-1.0%,0.0,4
COc1c(Br)cc(Br)cc1/C=C1/C(=O)N=C(N)N1C,-1.8,-15,5,-0.2%,-0.2,0
O=C(/C=C/c1ccccc1)Oc1ccc(C(=S)N2CCOCC2)cc1,7.9,20,?,-0.6%,1.8,nt
CN(C)CCCN(Cc1ccccc1)C(=S)Nc1cccc(C(F)(F)F)c1,-1.4,-6,-4,1.5%,-0.1,-5
CCO[C@@H]1OC(C(=O)NCc2nc3ccccc3[nH]2)=C[C@H](C2CCCCC2)[C@H]1CCCO,-1.9,-11,-11,-1.6%,-0.7,-2
Cc1ccccc1Cn1nnc(C(=O)Nc2ccc3c(c2)OCCO3)c1N,3.8,-7,-9,5.1%,-0.3,3
Cc1ccc(N(C)S(=O)(=O)c2ccc3[nH]cc(C(=O)NCCCN4CCOCC4)c(=O)c3c2)cc1C,-1.7,20,-2,0.3%,-0.6,-6
O=C(C1CCC(Cn2c(=S)[nH]c3ccccc3c2=O)CC1)N1CCN(c2ccccn2)CC1 (configuration not stated),-2.7,-21,1,1.0%,0.1,-19
CCCN1CCN(CC(=O)NCC(=O)Nc2cccc(C)c2C)CC1,-2.5,-5,3,-0.8%,0.4,-2
O=C(NC12CC3CC(CC(C3)C1)C2)c1c(Cl)cccc1Cl,-3.4,-2,5,5.9%,0.0,3
O=[N+]([O-])c1ccc(C(O)C23CN4CN(CN(C4)C2)C3)cc1 (configuration not stated),-9.0,-20,-8,1.0%,0.1,-18
CCN(C(=O)CN1CCN(c2cccc(C(F)(F)F)c2)CC1)c1c(N)n(Cc2ccccc2)c(=O)[nH]c1=O,-6.7,-17,15,-0.7%,-0.6,-3
Cc1c(NS(=O)(=O)c2cccc(C(=O)O)c2)c(=O)n(-c2ccccc2)n1C,-3.9,15&43,8,-1.4%&0.3%,3.8&-0.1,nt
CC1CCC2CCCCC2N1C(=O)c1cc([N+](=O)[O-])cc([N+](=O)[O-])c1 (configuration not stated),3.2,-2,-16,1.0%,1.1,-7
O=[N+]([O-])c1ccc(N2CCCCC2)cn1,-3.8,-1,6,-0.9%,0.0,nt

Compound profiles (already shown). Values in the order: D2 agonist, TRPML1 blocker, Six1-Eya2 inh, PINK1 expr mod, TRPML1 ag, CtBP-E1A blk
Results for `O=[N+]([O-])c1ccc(N2CCCCC2)cn1` : -3.8, -1, 6, -0.9%, 0.0, nt
Results for `CC1CCC2CCCCC2N1C(=O)c1cc([N+](=O)[O-])cc([N+](=O)[O-])c1` (configuration not stated) : 3.2, -2, -16, 1.0%, 1.1, -7
Results for `CCCN1CCN(CC(=O)NCC(=O)Nc2cccc(C)c2C)CC1` : -2.5, -5, 3, -0.8%, 0.4, -2
Results for `Cc1c(NS(=O)(=O)c2cccc(C(=O)O)c2)c(=O)n(-c2ccccc2)n1C` : -3.9, 15&43, 8, -1.4%&0.3%, 3.8&-0.1, nt
Results for `CCN(C(=O)CN1CCN(c2cccc(C(F)(F)F)c2)CC1)c1c(N)n(Cc2ccccc2)c(=O)[nH]c1=O` : -6.7, -17, 15, -0.7%, -0.6, -3
